Bioassay records: PubChem BioAssay, several laboratories
Sa ugtP lethal: growth inhibition of S. aureus ugtP deletion strain; S. aureus RN4220 ugtP deletion, OD600 growth, 16 h; some inactives read as strong as hits; growth inhibition, % (no concentration beside the values); 0.54% of 330,000 active;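 active = z-score under -3 and OD600 up to 0.15 on both plates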;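 also: plate controls were untreated wells for no effect and antibiotic for full effect; wells of about 80 µL received 100 nL stock; the first replicate is given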
RN4220 kill: S. aureus RN4220 growth inhibition. inhibition, % (no concentration beside the values). OD600, 16 h. 0.33% of 330,000 active;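 active = z-score of -3 or lower and OD600 up to 0.18 on both plates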;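 also: plate controls were untreated cells for no effect and reference antibiotic for full effect; stock transfer was 100 nL into about 80 µL; one replicate is shown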
Bead autofluor: compound fluorescence in toxin protease inhibitor counterscreen | compound autofluorescence counterscreen, microsphere flow cytometry; hits give high values | fluorescence intensity (concentration not given with the values) | AID 624483 | 3.1% of 360,000 active;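 active = at least 3 SD above the mean of all compounds, about 16000 in these data; inconclusive = too few beads counted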;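 also: 100 nL of 1 mM stock went into each well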
Mtb hypoxia inh: Mtb hypoxia fluorescent reporter inhibition; AID 1159583; M. tuberculosis hypoxia-regulated fluorescent reporter, fluorescence; fluorescence inhibition, % (test concentration not listed); 0.1% of 300,000 active;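 active = 35 to 45% if threefold the growth effect, above 45% if 1.5-fold the growth effect; inactive = the rest, general growth blockers included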;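 also: wells of about 50 µL received 100 nL stock; 0% = vehicle wells and 100% = reference inhibitor wells; whole bacteria with a GFP reporter of the hypoxia response; strong numbers were not always called active; many hits fall short of the cut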
BJeLR lethal: kills HRASV12-expressing BJeLR cells | BJeLR (HRASV12) viability, CellTiter-Glo ATP luminescence, 48 h; reference of the scale not given here | inhibition, % (no concentration beside the values) | 0.17% of 300,000 active;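 active = replicate mean above 50%; inconclusive = above 50% but judged a plate artefact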;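 also: 50 nL library stock added to about 25 µL; numbers are from one replicate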
PrP 5UTR inh: suppresses PrP 5' UTR mRNA reporter expression; cell-based PrP 5' UTR mRNA reporter, plate reader; inhibition, % (test concentration not listed); 0.35% of 340,000 active;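 active = every replicate at 50% or more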;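 also: 0 = median of the neutral control wells; tested in H4 reporter cells; numbers are from one replicate; inactives centre near -14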
Mtb hypoxia inh growth: also measured in Mtb hypoxia inh; calls as there; growth inhibition, %; measured here: M. tuberculosis growth (absorbance);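 0% = vehicle and 100% = reference antibiotic; read after six days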
* = called active by the depositor; ? = inconclusive; nt = not tested or not shown.

SMILES	Sa ugtP lethal	RN4220 kill	Bead autofluor	Mtb hypoxia inh	Mtb hypoxia inh growth	BJeLR lethal	PrP 5UTR inh
Cc1cc(CN(C)C)c(O)c(C2(C)CCCCC2)c1	8	7.1	2414	2	8	9	-9
COCCn1c(SCC(=O)Nc2cccnc2Cl)nc2ccccc2c1=O	2	4.2	9223	3	1	nt	-16
C=CCN=C1SC(C)(C)C(=O)N1S(=O)(=O)c1ccc(C)cc1	5	0.3	2275	-2	5	-8	-21
Cc1nnc(NC(=O)CC(CN(C)S(=O)(=O)c2ccccc2)c2ccccc2)s1 (configuration not stated)	12	12	5432	5	7	-17	-29
O=C1NC(=O)C(c2ccccc2)(c2ccccn2)N1 (configuration not stated)	9	2.8	2828	14	7	nt	-11
O=C(NC1CCS(=O)(=O)C1)c1cccc(S(=O)(=O)N2CCCC2)c1 (configuration not stated)	2	7.0	2679	2	0	5	-36
COc1ccc(CCNC(=O)c2ccco2)cc1OC	5	3.8	4314	15	4	-3	0
CC1CN(Cc2ccccc2)c2nc3c(c(=O)n(CC(N)=O)c(=O)n3C)n2C1 (configuration not stated)	-9	-6.7	3982	-13	-11	-1	-6
COc1cc(-c2nnc(SCC(=O)N(C)C3CCS(=O)(=O)C3)o2)cc(OC)c1OC (configuration not stated)	0	-0.6	4074	-3	5	-11	-1
CC(=O)Nc1sc2c(c1CN1CCN(c3ccc(F)cc3)CC1)CCCC2	-11	9.3	3187	10	22	-3	-23
CCOC(=O)C1(Cc2cccc(OC)c2)CCCN(Cc2c(C)nn(C(C)C)c2C)C1 (configuration not stated)	2	1.4	3446	8	-1	18	-26
CCOC(=O)C1CCN(c2nc3ccccc3nc2C(C#N)C(=O)OC(C)C)CC1 (configuration not stated)	-4	1.7	2860	nt	nt	-1	-6
COc1ncnc2c1NC(=O)CS2	-6	2.0	2360	nt	nt	8	-30
COc1cc(C2C(C#N)=C(C)NC3=C2C(=O)CC(C)(C)C3)ccc1OCCO (configuration not stated)	7	4.8	3292	14	9	9	-13
CCOc1ccc(NC(=O)CN(C)C(=O)c2cccc(S(=O)(=O)N3CCN(C)CC3)c2)cc1OCC	6	3.8	2869	5	2	nt	-27

Next section; the last 6 above are carried over.
SMILES	Sa ugtP lethal	RN4220 kill	Bead autofluor	Mtb hypoxia inh	Mtb hypoxia inh growth	BJeLR lethal	PrP 5UTR inh
CC(=O)Nc1sc2c(c1CN1CCN(c3ccc(F)cc3)CC1)CCCC2	-11	9.3	3187	10	22	-3	-23
CCOC(=O)C1(Cc2cccc(OC)c2)CCCN(Cc2c(C)nn(C(C)C)c2C)C1 (configuration not stated)	2	1.4	3446	8	-1	18	-26
CCOC(=O)C1CCN(c2nc3ccccc3nc2C(C#N)C(=O)OC(C)C)CC1 (configuration not stated)	-4	1.7	2860	nt	nt	-1	-6
COc1ncnc2c1NC(=O)CS2	-6	2.0	2360	nt	nt	8	-30
COc1cc(C2C(C#N)=C(C)NC3=C2C(=O)CC(C)(C)C3)ccc1OCCO (configuration not stated)	7	4.8	3292	14	9	9	-13
CCOc1ccc(NC(=O)CN(C)C(=O)c2cccc(S(=O)(=O)N3CCN(C)CC3)c2)cc1OCC	6	3.8	2869	5	2	nt	-27
CCC(Sc1nncn1C)C(=O)Nc1nnc(-c2ccccc2Cl)s1 (configuration not stated)	0	-12	5849	7	7	6	-5
COc1ccc(C2N(c3ccccc3)C(=O)C2(F)F)cc1OC (configuration not stated)	11	7.6	3260	19	12	7	12
C=CCOc1c(OC)cc(Cl)cc1C1NC(=O)NC(C)=C1C(C)=O (configuration not stated)	8	-0.7	4439	nt	nt	0	-11
CC(OC(=O)[C@H](C)NC(=O)c1ccccc1Cl)C(=O)NCc1ccc2c(c1)OCO2 (some centres not stated)	2	-1.4	5910	3	-12	5	-15
NC(=O)c1cc([N+](=O)[O-])c(Cl)cc1NCc1ccccn1	-11	4.2	4012	10	8	nt	-18
Cn1nc(C(=O)OCC(=O)Nc2sccc2C(N)=O)c2ccccc2c1=O	10	2.4	6355	0	9	4	-3
Cc1cc(=O)[nH]c(SCc2nnnn2-c2ccc(Cl)cc2)n1	4	5.1	2160	9	4	-2	-31
CS(=O)(=O)N(CC(=O)Nc1cccc(Cl)c1)c1ccccc1Cl	-9	4.2	9887	10	16	-8	1
COc1ccc(/C=C/C(=O)OCC(=O)Nc2c(C)cccc2C)cc1	5	8.8	4553	12	8	-1	-27
Cc1ccc(CN(CC(=O)NCc2ccc3c(c2)OCO3)C(=O)c2csnn2)cc1	7	6.1	2695	1	-9	0	-11
Cc1cc(=O)oc2c(CN3CCCC3)c(O)ccc12	4	2.2	3619	10	3	-12	-30
O=c1[nH]c(=O)n(Cc2ccccc2)c2nc(-c3ccc(C(F)(F)F)cc3)n(CCO)c12	7	-2.6	3663	8	-6	-1	-23
O=c1oc2ccccc2c2c1ncn2CCN1CCOCC1	-6	1.5	?	-1	2	-8	-19
COc1ccc(/C=N/NC(=S)NC2CCS(=O)(=O)C2)cc1 (configuration not stated)	nt	nt	8192	nt	nt	5	-4
N/C(=N\OC(=O)CCCCCN1C(=O)c2ccccc2C1=O)c1ccccc1	1	6.3	9434	4	1	5	-25
CN(C(=O)COC(=O)c1c[nH]c(=O)[nH]c1=O)C1CCCCC1	-1	-0.7	4535	8	11	2	-110
O=C(CCN1C(=O)C2CC=CCC2C1=O)Nc1ccccc1Cl (configuration not stated)	-4	-3.0	5735	-3	1	8	-13
COc1cccc(C(=O)Nc2ccc3c(c2)n(C)c(=O)n3C)c1	8	-4.4	4186	1	2	9	-21
CCCSc1nc2cc(C)c(C)cc2n1CC(O)CO (configuration not stated)	15	6.7	2055	0	-3	7	-25
COc1ccc(C2C=CCN(C(=O)c3ccc(C)cc3)C(C)C(=O)N2Cc2ccc(F)cc2)cc1 (configuration not stated)	4	11	nt	1	-4	nt	nt
CC(C)(NC(=O)NC(CO)c1ccccc1)c1cccc(C(C)(C)NC(=O)NC(CO)c2ccccc2)c1 (configuration not stated)	0	3.6	4189	7	-1	0	-21
Cc1sc2ncnc(NCC(c3ccco3)N(C)C)c2c1C (configuration not stated)	3	4.2	9384	10	12	-17	-14
CCOCC(=O)Nc1cc([N+](=O)[O-])ccc1OC	nt	nt	4537	nt	nt	3	-28
O=C(Nc1cccc(S(=O)(=O)N2CCCCC2)c1)C1CCN(C(=O)c2ccc(Cl)cc2)CC1	-1	-2.8	4028	6	-7	nt	-21
CN=C(Nc1cc(C)nn1-c1ccccc1)c1ccccc1F	8	4.4	23781*	7	8	9	-34
O=C(COC(=O)COc1cccc(Br)c1)Nc1c(Cl)cccc1Cl	-2	-0.1	2466	14	1	5	2
Cc1noc(C)c1CSCC(=O)NC1=NCCS1	1	2.4	13220	-2	7	1	-20
Cc1ccc(N2C(=O)c3ccccc3C2=O)cc1Cl	-6	-1.6	3567	nt	nt	16	-12
CC(=O)NNC(=S)NC(=O)c1ccccc1	9	8.3	4143	-6	9	7	-19
COc1ccc(Cn2nnc3c(=O)[nH]c(C4CCN(S(=O)(=O)c5ccc(C)cc5)CC4)nc32)cc1	-6	-4.3	5968	-16	9	2	5
Cc1ncc([N+](=O)[O-])n1CCOC(=O)Nc1ccc(Cl)c(Cl)c1	-15	9.1	10214	11	9	-4	-12
O=c1c2c3c(sc2nc(N2CCNCC2)n1CCc1ccccc1)CCCCC3	-9	6.2	4112	11	6	4	-18
CN(CC(=O)Nc1cccc(F)c1)CC(=O)N(C)c1c(N)n(Cc2ccccc2)c(=O)[nH]c1=O	2	1.6	2790	3	-2	nt	-6
O=C(c1c(F)cccc1F)N1CCC(O)(c2cccnc2)CC1	2	2.6	4117	nt	nt	-8	-9
Cc1ccc(S(=O)(=O)NNC(=O)Nc2ccc(C)c(C)c2)c(C)c1	-4	8.5	5651	4	6	5	-29
COc1cc(CNc2ccccc2SC)ccc1O	5	2.0	15783	4	3	16	-10
N#Cc1cccc(NC(=O)Cn2cnc(S(=O)(=O)N3CCc4ccccc43)c2)c1	5	1.4	5258	-4	-4	11	-7
Nc1nc(-c2cccnc2)nn1C(=O)c1ccccc1Cl	5	3.0	4532	4	3	6	-5
COc1cc(/C=N/NC(=O)COc2c(C)cc([N+](=O)[O-])cc2C)ccc1OC(=O)c1ccccc1	nt	nt	2687	nt	nt	-10	-11
COCC(C)n1c(SCC(=O)NNC(=O)c2ccccc2)nc2ccccc2c1=O (configuration not stated)	7	4.5	2099	14	5	0	-12
O=C(Nc1ccc(F)cc1F)c1cc(-c2ccco2)on1	4	5.5	23169*	13	10	0	-41
CC(=O)c1cccc(S(=O)(=O)N2CCC(C(=O)O)(c3ccccc3)CC2)c1	3	-0.5	5691	-11	1	-2	-13
Cc1cc(C(F)(F)F)nc(SCCN2CCCCC2)c1C#N	3	-1.0	4259	-4	2	-2	-6
C#CCOCCOCCOCCNc1nc(N2CCOCC2)nc(N2CCN(C(=O)C(C(C)CC)n3cc(CCCN=C(N)N)nn3)CC2)n1 (configuration not stated)	3	-0.1	nt	-2	17	nt	nt
COc1ccccc1N=C1SC(C)CN1C(=O)C1CCC1 (configuration not stated)	3	-0.5	nt	-9	-4	-6	nt
Cc1cc(N2CCCCC2)ccc1[N+](=O)[O-]	2	10.0	2507	-6	-2	-12	-29
CC(NC(=O)c1cnc2n(c1=O)CCS2)c1ccccc1 (configuration not stated)	6	-4.2	4451	nt	nt	1	-6
COc1cccc(C2CC=C(C(=O)O)C(c3ccccc3F)N2S(=O)(=O)c2ccc(C)cc2)c1 (configuration not stated)	27	25	nt	6	8	nt	nt
O=C(CSc1ccsc1[N+](=O)[O-])Nc1cccc(F)c1	-10	8.4	2689	-2	7	0	-12
CCC(C)Sc1ccc([C@H]2N[C@@](Cc3ccccc3)(C(=O)OC)[C@H]3C(=O)N(CC)C(=O)[C@@H]23)cc1OC (some centres not stated)	nt	nt	2794	nt	nt	-10	-17
C=CCOc1ccc(Br)cc1C=NO	11	10	nt	-5	4	nt	nt
COc1ccc(CCNC(=O)CSc2nnc3ccccn23)cc1	14	6.2	4645	10	6	-5	-16
Cc1ccc(C(=O)COC(=O)CNC(=O)c2ccc(N3C(=O)c4ccccc4C3=O)cc2)cc1C	0	-1.2	2014	-17	1	-4	-13
Cc1sc(NC(=O)c2sc3nc4c(C)cccc4cc3c2N)c(C#N)c1C	nt	nt	9272	nt	nt	0	-64
O=C(NCCN1CCOCC1)Nc1cccc(Cl)c1	3	8.0	4351	4	7	-9	-21
CS(=O)(=O)c1ccc(Cl)c(NC(=O)CN2CCCC2c2ccc3c(c2)OCCCO3)c1 (configuration not stated)	3	5.6	3625	8	4	nt	-2
CN1C2CCC1CC(NC(=O)c1ccc([N+](=O)[O-])cc1)C2 (configuration not stated)	10	-1.3	3979	-6	4	1	-9
COc1ccc(CNC(=O)COc2ccc(F)cc2)cc1	7	6.7	3964	17	15	0	-20
COc1cc(-c2c(C#N)c(N)nc3c2CCCC3)ccc1O	1	2.6	4244	nt	nt	4	-16
Cc1cc(O)c(/C=N/Nc2ccccc2Cl)c(=O)o1	nt	nt	5856	nt	nt	2	-10

Later entries
SMILES	Sa ugtP lethal	RN4220 kill	Bead autofluor	Mtb hypoxia inh	Mtb hypoxia inh growth	BJeLR lethal	PrP 5UTR inh
CC(=O)c1ccc(NC(=S)NNC(=O)c2ccccc2[N+](=O)[O-])cc1	0	3.4	3437	8	-2	1	-9
O=C(CN1C(=O)c2ccccc2S1(=O)=O)Nc1ncc([N+](=O)[O-])s1	10	8.5	?	6	4	2	-18
Cc1ccc(S(=O)(=O)c2cc3ccccc3nc2N)cc1	7	4.6	3887	-4	4	-16	-18
COc1ccc(C(=O)NC(=S)Nc2ccc(CN3CCOCC3)cc2)cc1Br	80	3.4	5565	21	12	27	-15
O=C(Cn1cc(C(F)(F)F)cc(Cl)c1=O)Nc1ccc(N2CCOCC2)cc1	0	3.2	4548	15	8	-2	-9
CN(Cc1c(C(=O)N/N=C/c2cc(F)ccc2F)nnn1-c1nonc1N)C1CCCCC1	nt	nt	5995	nt	nt	5	-4
N#C/C(=C(/O)CCl)c1nc(-c2ccccc2)cs1	48	54	5933	19	8	-1	-32
O=C(N/N=C/C(Cl)=C/c1ccccc1)c1ccccc1F	nt	nt	5627	nt	nt	-9	-60

Compounds were not picked by outcome; about 4% have a hit in one of these screens.
